# VACV Venus inh: inhibitors of vaccinia virus (Venus reporter) | Vaccinia virus Venus reporter expression, fluorescence | Potency, µM (top dose mostly 36.5 µM), for the others: at the top dose activity change, negative = inhibition, hits mostly inhibitors | hit rate 0.46% among 330,000 | AID 720580; active means well fitted inhibition curve with a large enough effect; inconclusive means small, poorly fitted or top-dose-only effect; inactive means no such curve, though single readings can be large or run the other way; tested in A549 cells; further: nearly all actives have a fitted effect of over 30% in size; inactives centre near -10
# Vaccinia mCherry: vaccinia inhibition (mCherry reporter); Vaccinia virus mCherry reporter infection, fluorescence; about a quarter of the inactives have no number; Potency, µM (series often up to 36.5 µM), without a hit: at the top dose activity change, negative = inhibition, most hits filed as inhibitors; hit rate 0.63% among 310,000; AID 720579; active = well fitted inhibition curve with a large enough effect; inconclusive = small, poorly fitted or top-dose-only effect; inactive = no such curve, though single readings can be large or run the other way; tested in A549 cells; further: nearly all actives have a fitted effect of over 35% in size; inactives centre near -10
# Starred values were filed as active, the others as inactive; i = inactive; ? = inconclusive; . = not tested or not shown; [ ] = dose if it differs, or a comment. On the % scale 0 is the no-effect control and ±100 the full control effect; potency means the concentration at half of the fitted maximal effect.
SMILES,VACV Venus inh,Vaccinia mCherry
O=C(CSc1nc2ccccc2o1)Nc1ccc(N2CCOCC2)cc1,4.0%,4.0%
O=C1NC(=O)/C(=C/c2ccccn2)S1,-16.2%[7.34 µM],-1.2%[7.34 µM]
Cc1ccc(CNC(=O)CCS(=O)(=O)c2ccc(C)cc2)cc1,-2.4%,-26.9%
CC(=O)[C@H]1CC[C@H]2[C@@H]3CC=C4C[C@@H](O)CC[C@]4(C)[C@H]3CC[C@]12C,-4.6%,i
O=C(COC(=O)CNC(=O)c1ccc2c(c1)OCO2)Nc1ncc(Cl)cc1Cl,-3.1%,i
S=C1Nc2cc(Cl)ccc2Sc2ccccc21,-3.8%,i
COCCN(C(=S)Nc1ccccc1C)C(C)c1cccs1 (configuration not stated),?,-18.0%
CCOc1ccc(NC(=O)c2c(NC(=O)c3cccc(C)c3)sc3c2CCC3)cc1,3.7%,-10.0%
CCOC(=O)c1ccc(NC(=O)c2cccc(S(=O)(=O)N3c4ccccc4CC3C)c2)s1 (configuration not stated),?,?
CCNS(=O)(=O)c1ccc(NC(=O)c2ccccc2SCCOC)cc1,-4.3%,-7.6%
O=C(CSc1nnc(-c2cccs2)o1)N1CCCc2ccccc21,-14.1%,-13.6%[1.46 µM]
COc1ccccc1C1CN(Cc2ccccc2O)Cc2ccccc2O1 (configuration not stated),-7.0%,-7.9%
Cc1c(Br)c([N+](=O)[O-])nn1CC(=O)NCc1cccnc1,-11.3%,-14.6%
O=C(NCCO)c1cccc(S(=O)(=O)N2CCCCC2)c1,-12.3%,-14.8%
CC(C)(C)c1nc2ccccc2c(=O)n1N1C(=O)c2ccccc2C1=O,-29.5%,-17.4%
Cc1ccc(-c2cc(C(=O)OCC(=O)c3ccccc3)c3cccc(Cl)c3n2)cc1,-11.5%,-13.3%
COCCN1CCN(C(=O)C2CCC(=O)N(CCc3ccc(Cl)cc3)C2)CC1 (configuration not stated),-6.1%,i
CC(CNC(=O)CCCn1ncn2c(cc3occc32)c1=O)c1ccccc1 (configuration not stated),-10.6%,-9.7%
CC(Sc1nnc2c(n1)[nH]c1ccccc12)C(=O)N(C)C1CCCCC1 (configuration not stated),3.2%,-14.7%
O=C(c1ccc(Cl)cc1)c1c[nH]c(C(=O)NNc2ccccc2)c1,-27.1%,?
CC1(C(=O)NC2CCCCC2)CCC(=O)N1Cc1cccs1 (configuration not stated),1.4%,-11.0%
CC1(C)Oc2ccc(C(=O)N3CCOCC3)cc2N(CC(=O)N2CCOCC2)C1=O,-4.3%,-13.8%
O=C(NCc1ccco1)c1ccc(S(=O)(=O)N2CCCCC2)cc1,-19.6%,-5.8%
Cc1cc(C)c(C)c(S(=O)(=O)N2CCC(C(=O)NCC(c3ccccc3)N(C)C)CC2)c1C (configuration not stated),?,-1.6%
Cc1cc(CNC(=O)Cn2cc([N+](=O)[O-])cn2)c2ccccc2n1,1.5%,-4.7%

# Full records from above.
# Profile of CC(Sc1nnc2c(n1)[nH]c1ccccc12)C(=O)N(C)C1CCCCC1 (configuration not stated) → VACV Venus inh: 3.2%; Vaccinia mCherry: -14.7%
# Profile of CCOC(=O)c1ccc(NC(=O)c2cccc(S(=O)(=O)N3c4ccccc4CC3C)c2)s1 (configuration not stated) → VACV Venus inh: ?; Vaccinia mCherry: ?
# Profile of O=C(NCc1ccco1)c1ccc(S(=O)(=O)N2CCCCC2)cc1 → VACV Venus inh: -19.6%; Vaccinia mCherry: -5.8%

# The listing picks up, starting 4 compounds before the break.
SMILES,VACV Venus inh,Vaccinia mCherry
CC1(C)Oc2ccc(C(=O)N3CCOCC3)cc2N(CC(=O)N2CCOCC2)C1=O,-4.3%,-13.8%
O=C(NCc1ccco1)c1ccc(S(=O)(=O)N2CCCCC2)cc1,-19.6%,-5.8%
Cc1cc(C)c(C)c(S(=O)(=O)N2CCC(C(=O)NCC(c3ccccc3)N(C)C)CC2)c1C (configuration not stated),?,-1.6%
Cc1cc(CNC(=O)Cn2cc([N+](=O)[O-])cn2)c2ccccc2n1,1.5%,-4.7%
CCC(=O)N1CCc2cc(S(=O)(=O)NC(Cc3ccccc3)C(=O)Nc3ccc(Cl)cc3)ccc21 (configuration not stated),-16.2%,-13.1%
CCOC(=O)C1CCN(C(=O)CS(=O)Cc2nc(-c3ccc(C)cc3)oc2C)CC1 (configuration not stated),?,?
Cc1ccc(C(=O)N/C(=C/c2ccc(-c3cccc([N+](=O)[O-])c3)o2)C(=O)NC(C)C)cc1,-15.1%,-11.9%
O=C(Cc1cccs1)Nc1cccc(-c2nc3cc4ccccc4cc3[nH]2)c1,10µM*,?
O=C(N1CCOCC1)N(CCN1CCOCC1)Cc1cccc(Cl)c1,-26.3%,.
CCCN1C(=O)/C(=C/c2c(NCCCOCC)nc3c(C)cccn3c2=O)SC1=S,-10.0%,-10.7%
CCOc1ccc(CNC(=O)C2CCCN(S(=O)(=O)c3ccc4c(ccn4C)c3)C2)cc1 (configuration not stated),-9.8%,-22.6%
Cc1cccc(Nc2ncnc3nc[nH]c23)c1C,-7.9%,-5.9%
O=C(N/N=C/c1ccccc1[N+](=O)[O-])c1cccs1,-13.5%,-3.2%
CCOC(=O)C1=C(C)N(CCO)C(=O)NC1c1cccc(O)c1 (configuration not stated),-9.7%,.
Cc1cc(N2CCN(c3ccccc3)CC2)n2ncnc2n1,-4.6%,i
COc1ccc(OC)c(NC(=O)CN2CCc3ccccc3C2)c1,-0.1%,-14.3%
Brc1ccc(OCc2nnnn2-c2ccccc2)cc1,-4.6%,-16.4%
O=C1NC(=O)/C(=C\c2ccc(Oc3cnccn3)cc2)S1,-5.9%,-9.6%
C=CCN1c2ccccc2[C@]23C[C@@H](C(=O)OC)N(C(=O)c4ccco4)C2=NC(C(=O)OC)=C(C(=O)OC)[C@H]13,?,?
COc1ccc(NC(=O)CSC2=Nc3ccccc3C3=NC(CCC(=O)NCc4cccs4)C(=O)N23)cc1 (configuration not stated),-19.8%,-26.0%
O=C1c2ccccc2C(=O)N1CC(O)COc1cccc2ccccc12 (configuration not stated),-1.3%,3.8%
CCOC(=O)N1CCN(C(=O)C(CC)c2ccccc2)CC1 (configuration not stated),-1.4%,-12.4%
CCCCCOc1ccc(C(=O)CCC(=O)N2CCCC2)cc1,-1.4%,i
Cc1ccc(-c2nc(CS(=O)(=O)CC(=O)Nc3cc(F)ccc3F)c(C)o2)cc1,-25.1%,-12.8%
CCOC(=O)/C(=C/C1=CC(=C/N(C)C)/C(=O)O1)C(C)=O,23.0%,i
CCn1c(NC(=O)/C=C/c2ccc(F)cc2)nc2ccccc21,1.4%,?
Cc1oc(-c2ccccc2NC(=O)C2CCC2)nc1CNC(=O)c1ccc2ccccc2c1,5.5%,-4.1%
Cc1cc(NC(=O)CCc2ccc(S(=O)(=O)N3CCOCC3)cc2)n(-c2ccccc2)n1,-25.1%,?
COc1cc(-c2nc3nc(C)cc(C)n3c2Nc2ccc(Cl)cc2)ccc1O,-16.0%,-17.0%
# (list continues)
SMILES,VACV Venus inh,Vaccinia mCherry
COc1cccc(OCCCOc2ccc([N+](=O)[O-])cc2Cl)c1,9.2%,-4.5%
CC(C)NC[C@@H](O)c1ccc(O)c(O)c1,-9.3%,-14.9%
CC1CCC(C(C)C)C(OCC(O)CN2CCCC(C)C2)C1 (configuration not stated),-28.3%,?
CCCCN(C)C(=O)Cn1ncc2c3ccccc3n(CCC)c2c1=O,-10.9%,i
CCOc1ccc(NC(=O)N(C2CCCCC2)C(C)c2cccnc2)cc1 (configuration not stated),-7.3%,-27.4%
CCC1Cc2[nH][nH]c(=O)c2C(CC)O1 (configuration not stated),3.8%,26.8%
O=c1c2ccccc2nc(/C=C/c2cccc3ccccc23)n1-c1ccc(Cl)cc1,-6.8%,-13.1%
Cc1c(CCC(=O)O)c(=O)oc2cc3occ(C(C)(C)C)c3cc12,-10.6%,-9.9%
CCS(=O)(=O)c1ccc(O)c(NC(=O)CC2(CC(=O)O)CCCC2)c1,-4.1%,i
O=C(CN1CCN(Cc2ccccc2Cl)C1=O)NCC1CCCO1 (configuration not stated),-0.1%,i
COc1ccc(-c2cc(C(F)(F)F)n3nc(C(=O)Nc4cccc(C(F)(F)F)c4)c(Br)c3n2)cc1,-3.0%,-8.1%
CC(=O)N1c2ccc(S(=O)(=O)NCCC(=O)NC3CCCCCC3)cc2CC1C (configuration not stated),-0.7%[7.34 µM],-7.0%[7.34 µM]
COC(=O)c1cc(NC(=O)c2cccc(F)c2)cc(C(=O)OC)c1,-8.2%,i
COc1ccc(NC(=O)CN(C)C(=O)C2CC(=O)N(CCc3ccc(OC)c(OC)c3)C2)cc1 (configuration not stated),-9.7%,-17.8%
O=C(O)C1CC=CCC1C(=O)NCCc1csc(-c2ccccc2)n1 (configuration not stated),-1.9%,i
COc1ccc2c(c1)c(CC(=O)OC(C)C(=O)N(C)C)c(C)n2C(=O)c1ccc(Cl)cc1 (configuration not stated),-0.7%,-17.8%
O=C(Nc1ncc(Cl)cn1)c1cccs1,-8.5%,.
COc1cc(OC)c2c(OC)cccc2n1,-7.3%,0.6%
CCOc1cccc(-c2c(C(=O)N/N=C/c3ccc(C)s3)nnn2-c2nonc2N)c1,-13.6%,?
CC(=O)NC(CCS(C)(=O)=O)C(=O)Nc1ccccc1Cl (configuration not stated),?,.
Cc1cccc(C(=O)NCC(=O)OCC(=O)NC2CCCCC2)c1,-3.6%,i
CCOC(=O)C1CCN(c2c(C(=O)c3ccc(OCC)cc3)cnc3ccc(OC)cc23)CC1,-8.5%,i
CCC(=O)N1CCCN(S(=O)(=O)c2ccc(C)cc2)C1c1ccc(OC)cc1 (configuration not stated),-7.3%,-29.5%
O=C1OC(c2ccc(F)cc2)CC1CN1CCOCC1 (configuration not stated),6.1%,3.3%
COc1cc(OC)cc(-c2nnc(SCC(=O)N3CCCCC3)o2)c1,-19.1%,-29.0%
# (list continues)
SMILES,VACV Venus inh,Vaccinia mCherry
N#Cc1c(C(F)(F)F)cc(-c2cccs2)nc1SCc1ccc(Cl)nc1,-22.2%,-16.8%
Cc1ccc(NC(=O)CSc2nnc(N)s2)cc1S(=O)(=O)N1CCCCC1,-22.3%,-2.1%
CC(C)CC(O)C1CCN(C(=O)CCc2nnc(-c3ccc4c(c3)OCO4)o2)CC1 (configuration not stated),-11.8%,i
CC1Cc2ccccc2N1c1ncnc2nc[nH]c12 (configuration not stated),-25.8%,i
CCCC12CN3CC(C)(CN(C1)C3c1ccccn1)C2=O (configuration not stated),-6.4%,-9.9%
CCOC(=O)C1CCN(c2ncnc3c2cnn3-c2ccc(Cl)cc2)CC1,-1.8%,-5.4%
CCn1ncc(Br)c1C(=O)Nc1c(C)nn(Cc2c(F)c(F)c(F)c(F)c2F)c1C,?,?
COC(=O)N(c1ccccc1)P(=O)(Oc1ccccc1)Oc1ccccc1,-3.2%,-7.8%
COc1ccc2[nH]c(=O)c(COC(=O)c3cccs3)cc2c1,-3.0%,i
Cc1cc(=O)n2nc(N3CCC(C(=O)NCc4ccccc4Cl)CC3)sc2n1,-8.2%,2.5%
CC1CC(C)(C)NC(=S)N1CCCC(=O)Nc1ccccc1F (configuration not stated),-5.3%,i
C#Cc1ccc([C@@H]2C=C(C(=O)OCC=C)O[C@H](OCc3ccc(CO)cc3)C2)cc1,-8.1%,i
Cc1cccc(-n2c(SCC(=O)Nc3ccccc3C)nc3c(oc4ccccc43)c2=O)c1,-12.1%,-11.5%
COc1cccc(NC(=O)Cn2c(=O)n(CCC(=O)NC3CCN(Cc4ccccc4)CC3)c(=O)c3ccccc32)c1,-12.1%,-4.7%
CN1C2CCC1CC(OC(c1ccc(F)cc1)c1ccc(F)cc1)C2 (configuration not stated),-21.5%,-13.7%
CC1CCC2(CC1)NC(=O)N(Cc1cc(=O)n3ccsc3n1)C2=O (configuration not stated),4.4%,22.9%
C=CCn1c(=N)n(CC(=O)c2ccc(Br)cc2)c2ccccc21,-24.7%,-26.9%
COc1ccc(NS(=O)(=O)c2ccc(C)cc2)c([N+](=O)[O-])c1,2.2%,-3.2%
CC1(C(=O)NCc2ccccc2Br)CCN1Cc1ccc(-c2ccccn2)cc1 (configuration not stated),-14.7%,1.6%
Cc1ccsc1/C=C/C(=O)O,10.6%,i
CCOC(=O)[C@]12CCC=C1N(Cc1ccccc1)C(=O)[C@H](CC(=O)N1CCN(C(=O)c3ccco3)CC1)C2,-6.3%,3.1%
C=CCn1c(Sc2nc(C)cs2)nc2c1c(=O)[nH]c(=O)n2C,-6.9%,i
COc1ccc(N(CC(=O)Nc2ccc(C)cn2)S(=O)(=O)c2c(C)nn(C)c2C)cc1,-2.4%,8.1%
CCOC(=O)c1[nH]c(C)c(C(=O)Nc2ccc(F)cc2)c1C,-4.1%,-11.1%
CCCc1cc(=O)n2[nH]c(-c3ccc(C)cc3)nc2n1,-7.6%,-13.8%
# (more compounds)
SMILES,VACV Venus inh,Vaccinia mCherry
CCc1ccc(C(=O)c2cn(CC(=O)Nc3ccc(F)cc3)c3cc4c(cc3c2=O)OCO4)cc1,-11.1%,-24.7%
CC1(C)C2CCC1(CS(=O)(=O)N1CCCC1C(=O)O)C(=O)C2 (configuration not stated),3.1%,0.2%
COc1ccccc1N=c1sc2ccccc2n1C,-3.3%,-19.5%
CCCC(=O)Nc1c(-c2cccc(C)c2)c(=O)c2ccccc2n1C,-12.1%,i
Cc1onc(-c2ccccc2)c1C(=O)NNC(=S)NC(=O)c1ccc(Br)cc1,-14.7%,i
CC(=O)NCCNC(=O)c1ccc(Sc2ccccc2)c([N+](=O)[O-])c1,-15.6%,-14.1%
Nc1cc(S(=O)(=O)Nc2cc(Cl)ccc2Cl)ccc1N1CCOCC1,-12.7%,-5.9%
O=C(c1[nH]ncc1[N+](=O)[O-])N1CCOCC1,-11.9%,-10.8%
COc1cccc(/C=N/Nc2cc(C)nc(-c3ccccc3O)n2)c1O,?,?

# Screening results from PubChem BioAssay.
